RanGTP-Impb inh – disruptors of Ran-importin-beta complex formation – biochemical, FRET, CFP-Ran, YFP-importin-beta, homogeneous, primary screen. cell-free CFP-Ran/YFP-importin-beta FRET ratio. inhibition, % (test concentration not listed). hit rate 1.1% among 300,000. AID 2216;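 active = most replicates above 15%; inconclusive = exactly half above 15%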;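 also: 0% = DMSO wells and 100% = Ran loaded with GDP instead of GTP; wells of about 40 µL received 100 nL stock; the first replicate is given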
T cruzi inh – T. cruzi replication inhibition; T. cruzi beta-gal in NIH3T3, luminescence, 90 h; hit rate 1.4% among 300,000; AID 1885; inhibition, % (concentration not given with the values);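 active = mean inhibition across valid replicates above about 55%, limit read from the data; inconclusive = mean below that limit but half or more replicates reach it; inactive = mean below it, under half of replicates reach it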;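 also: signal also drops with host cell toxicity which is not excluded here; 0% = plate median of DMSO wells and 100% = zero luminescence signal; higher percent means less beta-gal luminescence so fewer parasites; stock transfer was 50 nL into about 50 µL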
Bfl-1 A1 inh – inhibitors of the anti-apoptotic protein A1, read as caspase activation. MEF A1-2A-BIM cells, Caspase-Glo 3/7 luminescence, 3 h; percent of clofoctol response, vehicle zero. hit rate 0.066% among 330,000. caspase activation, % (test concentration not listed);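 active = over half of replicate activation scores above 10%, or exactly half above 10 with the replicate mean above 10; inconclusive = replicate mean below 10 yet half the replicates above 10; inactive = over half of replicates below 10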;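 also: wells of about 30 µL received 50 nL stock; many hits fall short of the cut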
B2AR ag – human beta-2 adrenergic receptor agonism by FAP; Am2.2-beta2AR cells, FAP receptor internalization, flow cytometry; reference of the scale not given here; response, % (test concentration not listed); hit rate 0.43% among 340,000; AID 504454;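 active = response above a set limit, near 3 SD of response in nonfluorescent compounds, cut at about 42% in these data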;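 also: stock transfer was 100 nL into about 11 µL; a reference agonist was the positive control; negative values mostly stem from fluorescent compounds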
Target sequence (P07550 whole entry, looked up): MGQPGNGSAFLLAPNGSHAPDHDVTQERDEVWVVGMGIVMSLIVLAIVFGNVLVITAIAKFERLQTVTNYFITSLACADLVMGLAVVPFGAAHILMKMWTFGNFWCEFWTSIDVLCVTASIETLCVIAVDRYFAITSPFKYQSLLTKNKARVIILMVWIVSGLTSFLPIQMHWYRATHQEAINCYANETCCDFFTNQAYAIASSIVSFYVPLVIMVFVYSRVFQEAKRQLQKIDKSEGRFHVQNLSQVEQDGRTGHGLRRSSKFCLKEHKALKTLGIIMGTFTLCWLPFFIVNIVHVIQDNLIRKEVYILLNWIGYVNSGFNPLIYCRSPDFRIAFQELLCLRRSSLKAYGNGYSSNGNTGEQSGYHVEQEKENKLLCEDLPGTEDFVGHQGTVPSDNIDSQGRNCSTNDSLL
Calb FLC – affects C. albicans growth with fluconazole; hit rate 0.57% among 300,000; C. albicans CaCi-2 (fluconazole-resistant clinical isolate) + fluconazole, Alamar Blue growth, 48 h; growth inhibition, % (test concentration not listed);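 active = most replicates above 75%; inconclusive = exactly half above 75%; inactive = most below 75%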;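 also: all wells also contain fluconazole at 8 µg/ml as a sub-toxic cotreatment; 0% = median of DMSO wells and 100% = median of geldanamycin control wells; wells of about 8 µL received 7.5 nL stock; the first replicate is given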
Beta apoptosis – blocks beta cell apoptosis; INS-1E cytokine-induced death, ATP luminescence, 48 h; percent of positive-control rescue, neutral wells zero; protection from apoptosis, % (test concentration not listed); hit rate 0.8% among 300,000; AID 435005;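 active = all replicates at 75% or more, or half of them and the mean; inconclusive = half reach 75% but not the mean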;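 also: 0% = cytokine-treated negative control wells and 100% = positive control rescue; higher means more ATP so stronger rescue from cytokine killing; wells of about 40 µL received 100 nL stock; the first replicate is given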
LANA-H2B inh – blocks KSHV LANA binding to histone H2A/H2B; cell-free LANA-H2A/H2B peptide, fluorescence polarization; AID 2629; hit rate 0.6% among 320,000; inhibition, % (test concentration not listed); in the data active = inhibition mostly above about 10%, no sharp cut-off; inactive = mostly below about 6.7%;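 also: stock transfer was 7.5 nL into about 10 µL; 0% = median of vehicle wells and 100% = median of positive control wells; one replicate is shown; the record names a cut of 25% in any replicate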
UCH37 DUB inh – inhibitors of human deubiquitinating enzyme UCH37; purified proteasome/UCH37, Ub-AMC cleavage fluorescence; inhibition, % (no concentration beside the values); hit rate 0.33% among 330,000;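 active = mean of two replicates above 20%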;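 also: 0% = compound-free wells with enzyme and 100% = wells lacking proteasome; stock transfer was 100 nL into about 20 µL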
Target sequence (Q9Y5K5 whole entry, looked up): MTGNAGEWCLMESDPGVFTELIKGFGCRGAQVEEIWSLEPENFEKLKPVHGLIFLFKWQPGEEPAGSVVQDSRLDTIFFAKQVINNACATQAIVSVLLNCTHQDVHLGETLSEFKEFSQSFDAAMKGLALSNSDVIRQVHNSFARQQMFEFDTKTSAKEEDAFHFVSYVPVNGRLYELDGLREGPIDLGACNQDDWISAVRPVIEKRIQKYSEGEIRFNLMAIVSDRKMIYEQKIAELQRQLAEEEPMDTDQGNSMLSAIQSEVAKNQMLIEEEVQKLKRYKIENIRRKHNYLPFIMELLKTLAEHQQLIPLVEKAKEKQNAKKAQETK
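Schedule: 30 min plus 25 min, room temperature / Material: human UCH37 within purified proteasomes / Technique: AMC fluorescence intensity at 355/460 nm / Buffer or medium: pH 7.4 Tris-HCl (50 mM) with ovalbumin, ATP-MgCl2, DTT / Controls: wells without proteasome as full block, compound-free enzyme plus substrate as uninhibited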
Numbers without * were called inactive; ? = inconclusive; nt = not tested or not shown. Rows are unselected (roughly 4.3% active in at least one column).

compound,LANA-H2B inh,UCH37 DUB inh,Beta apoptosis,Bfl-1 A1 inh,Calb FLC,T cruzi inh,RanGTP-Impb inh,B2AR ag
CC(=O)Oc1ccc(-c2cccc(C(=O)N3CCCCC3)c2)cc1,-1.5,6.4,-4,0.4,0,-4,-0.3,1
CN(C)c1ccc(NC(=O)CSc2nnc(-c3cnccn3)n2C)cc1,-8.0,1.8,2,0.6,-1,6,9.0,-6
COc1ccc(C(=O)NCc2nnc(SCC(=O)N3CCOCC3)o2)cc1,-5.1,0.5,-1,1.6,-7,-10,2.1,-4
O=Cc1cccc(Oc2ccc([N+](=O)[O-])cc2[N+](=O)[O-])c1,3.1,2.2,5,-0.4,38,1,0.7,15
CC(=N\NC(=O)c1cc(Br)ccc1O)/C(=N/O)C(=O)Nc1ccccc1,-1.8,nt,5,-3.3,-6,15,-2.5,12
Cc1ccc2c(c1)C(c1ccccc1)N(C(=O)c1ccccc1)CC(=O)N2 (stereo not given),-1.8,5.6,3,-0.8,6,-6,-4.6,-1
O=C(CNC(=O)c1ccccc1F)NCc1cccnc1,6.5,3.5,-1,0.1,6,-8,5.5,5
COC(=O)C1=NN(c2ccc(C)cc2)C2C(=O)N(c3ccccc3OC)C(=O)C12 (stereo not given),0.1,-16,-1,-0.2,-8,-4,-0.2,-1
Cc1cccc(C(=O)NC2CCN(C(=O)NCc3ccccc3)CC2)c1,2.7,3.9,1,0.2,-5,1,?,16
COc1ccc(S(=O)(=O)N2CCC(C(=O)N[C@H](C(=O)N3CCCCCC3)C(C)C)CC2)cc1,3.3,1.8,-3,0.0,-2,11,-2.1,1
COc1cc(-c2c(NC(=O)c3ccco3)oc3ccccc3c2=O)cc(OC)c1OC,4.0,7.4,-3,0.9,44,0,-0.3,-7
O=C(COC(=O)c1c(Cl)ccc(Cl)c1Cl)NC1CCS(=O)(=O)C1 (stereo not given),-4.0,5.3,-4,-1.2,1,-16,2.1,1
COC(=O)/C(C#N)=C/N(C)C,5.2,0.1,-1,0.6,-14,-19,3.6,-2
O=C(/C=C/c1ccc(Cl)c(Cl)c1)NCc1ccco1,-0.2,6.8,1,-0.2,-5,-17,4.1,-15
O=[N+]([O-])c1ccccc1/C=C/CN1CCSCC1,1.3,4.1,nt,1.0,-3,15,?,-1
O=C(Nc1ccccc1)N1CCN(c2ccccn2)CC1,-0.8,0.9,3,-1.1,1,-5,1.8,-1
COc1ccc(C2NC(c3ccc(OC)cc3)C(C)C(=O)C2C)cc1 (stereo not given),-3.9,2.1,0,-0.4,-5,5,0.9,2
CN(c1ccc(C(=O)Nc2ccccc2Sc2ccccc2)cc1)S(C)(=O)=O,-1.3,5.3,4,-0.1,-7,16,4.9,10
C=CCOc1ccn(C)c(=O)n1,-8.9,1.1,0,0.1,9,-11,2.1,-3
CCOC(=O)C1(Cc2ccccc2C)CCCN(S(=O)(=O)CC)C1 (stereo not given),-1.2,3.0,nt,0.9,2,-15,2.9,-5
OCCNc1nc(Nc2ccc(Br)cc2)nc2ccccc12,0.6,-32,22,-0.8,25,62*,4.4,nt
CC(=O)NC(=S)Nc1sc2c(c1C#N)CCCCC2,nt,2.9,nt,nt,25,-7,4.3,7
CC(=O)Nc1ccc(-n2nnnc2SCC(=O)Nc2cccc(NC(=O)c3ccco3)c2)cc1,-2.5,-1.3,-7,-1.3,8,2,-1.4,-5
O=C(CN1C(=O)/C(=C/c2ccccc2F)Sc2ccccc21)NCC1CCCO1 (stereo not given),-1.5,-11,-7,0.5,-32,25,1.4,1
COc1ccc(S(=O)(=O)N2CCCC(C(=O)NCc3ccco3)C2)cc1OC (stereo not given),1.2,1.9,-7,-0.1,2,-11,0.1,8
CCC1Sc2ccc(S(=O)(=O)Nc3ccc(OC)cc3)cc2NC1=O (stereo not given),-4.3,1.0,-1,0.9,9,19,2.5,-6
O=C(NN1CC(C(=O)OCc2ccccc2F)CC1=O)c1ccccc1 (stereo not given),-1.8,1.8,2,-0.8,-4,23,-4.4,-1
Cc1ccc(N2CCN(c3ccc(NC(=O)CCC(=O)O)cc3)CC2)cc1,1.3,0.4,-3,-0.9,-19,-5,1.7,4
Cc1c(NC(=O)C(=O)N/N=C/c2cccs2)c(=O)n(-c2ccccc2)n1C,-1.6,nt,-8,0.3,4,-16,1.4,0
COc1ccc(S(=O)(=O)Nc2nc3ccccc3nc2NCc2ccc3c(c2)OCO3)cc1,5.1,-97,nt,0.7,-6,-1,4.6,-5
CCOc1cc(/C=N\NC(N)=O)cc(Br)c1OC(C)C,-3.4,nt,-9,2.0,-6,-7,0.1,2
CC1=C(Cl)C2=NS(=O)(=O)CCN2C=C1Cl,-0.7,-484,nt,0.2,25,-6,4.5,-1
COc1ccccc1C(=O)N/N=C(\C)CC(=O)Nc1ccc(Nc2ccccc2)cc1,1.9,nt,0,-1.1,20,18,4.2,2
O=C(NC(Cc1ccccc1)C(=O)O)/C(=C/c1ccccc1)NC(=O)c1ccc(Br)o1 (stereo not given),-3.9,2.3,-8,-2.3,4,-3,6.3,2
O=C(/C=C/c1ccc(F)cc1)NC(=S)N1CCCCC1c1cccnc1 (stereo not given),-14,5.0,1,-0.5,-3,24,?,10
Cc1cccc(-n2nc(C(=O)c3ccco3)cc(-c3nc4ccccc4[nH]3)c2=N)c1,3.0,6.4,30,-0.9,97*,54,11,29
CCc1cc2c(N3CCN(c4nnc(CC)s4)CC3)ncnc2s1,-4.4,5.0,26,-1.6,46,19,-2.6,-5
CCCOCC(O)CCc1n[nH]c(=S)n1-c1ccccc1 (stereo not given),-5.6,1.1,nt,-0.2,-16,-12,-0.7,3
Cc1ccc(C(=O)CCC(=O)N(C)CC(=O)Nc2ccccc2Br)cc1,3.0,1.9,13,-0.7,13,7,2.2,-4
N#Cc1c(Nc2ccccc2)c(C=O)c[nH]c1=O,-1.0,nt,-3,1.3,0,-12,-1.6,-1
Nc1c(N(Cc2ccccc2)C(=O)CCc2ccccc2)c(=O)[nH]c(=O)n1Cc1ccccc1,1.6,-2.0,-1,0.8,nt,nt,nt,6
COc1ccc(NC(=O)CSc2n[nH]c(-c3ccccn3)n2)cc1,4.3,2.0,nt,-0.1,-7,-3,2.6,10
COc1ccccc1NC(=S)N1CCN(c2nc(-c3ccccc3)cs2)CC1,-1.1,-0.8,-3,-0.6,1,7,1.3,-2
CCOc1ncccc1C(=O)OCC(=O)N1CC(=O)Nc2ccccc21,-2.4,4.0,-3,0.0,0,0,-0.7,-11
CC1(C)CC(=O)C(C=N)=C(O)C1,3.6,0.4,-22,1.0,-31,-18,0.5,0
O=C(O)c1cc([N+](=O)[O-])ccc1N1CCCCC1,5.0,15,nt,0.4,16,-17,-4.4,3
COc1ccc(C(=O)/C=C(\C)Nc2ccc(NC(C)=O)cc2)cc1,5.3,10,-3,0.0,-5,14,-8.3,-10
O=C(O)c1cncc(C#Cc2ccccc2)c1,5.9,0.0,-8,-2.3,0,-2,-2.9,2
CC1(c2ccc(Cl)cc2Cl)NC(=O)N(CC(=O)Nc2cccnc2Cl)C1=O (stereo not given),-3.8,1.0,6,-0.3,-1,-7,1.8,0
CC1CCN(C(=O)CCC(=O)Nc2nnc(C3CCCCC3)s2)CC1,1.1,-1.0,-12,-0.8,3,2,5.6,-6

Other compounds:
compound,LANA-H2B inh,UCH37 DUB inh,Beta apoptosis,Bfl-1 A1 inh,Calb FLC,T cruzi inh,RanGTP-Impb inh,B2AR ag
CCC(=O)Nc1nc2ccc(NC(=O)COc3ccccc3)cc2s1,1.7,-0.2,-2,1.0,-7,-8,0.5,0
CCC(Sc1nc(-c2ccccc2)cc(=O)[nH]1)C(=O)O (stereo not given),0.8,2.0,1,0.3,-22,-16,4.4,-1
CN(C)CCC(=O)c1cccc(Br)c1,-5.1,1.8,-8,-2.1,-7,33,9.9,2
Cc1cc2[nH]c3ccccc3c2cn1,-0.6,-5.2,9,0.9,-5,14,-1.6,0
O=C(/C=C/c1cccc(Cl)c1)NCCc1ccccc1,0.8,0.9,3,0.2,0,12,1.8,-3
O=C(COC(=O)/C=C/C(=O)OCC(=O)Nc1ccccc1F)Nc1ccccc1F,-1.3,5.8,-6,1.7,0,-8,?,22
CCOC(=O)n1c(=O)n(Cc2ccc(OC)cc2)c2ccccc21,4.7,4.8,21,-0.3,-4,-15,-4.1,-7
O=C(NCc1cccs1)c1ccccc1,-11,-0.3,-6,0.0,5,-4,0.8,-1
COc1ccc(S(=O)(=O)Cc2ccc(C(=O)N3CCN(c4cc(Cl)ccc4C)CC3)o2)cc1,-3.6,4.8,-4,-0.2,-1,9,-1.0,4
CSc1ccc(CN(C)C(=O)c2cc3ccccc3o2)cc1,7.5,2.1,-2,-0.5,1,19,-3.3,7
CC1CCN(C(=O)Cn2cnc3c2c(=O)n(C)c(=O)n3C)c2ccccc2S1 (stereo not given),2.9,nt,-2,0.4,-11,9,-0.8,-8
CCN(CC)S(=O)(=O)c1ccc(N2CC(C(=O)NCc3ccc4c(c3)OCO4)CC2=O)cc1 (stereo not given),3.5,3.9,0,0.6,nt,nt,nt,0
Cc1ccc(OCCOCCN2CCN(C)CC2)c([N+](=O)[O-])c1,-4.3,5.2,-11,0.9,-8,14,-2.3,2
Cc1ccc(N2C(=O)CC(Sc3cccs3)C2=O)cc1 (stereo not given),3.2,3.2,-18,-0.3,-26,15,4.7,2

Source: PubChem BioAssay
